# GLA inh pH 4.5 – alpha-galactosidase A (human) inhibition, pH 4.5; 230,000 tested, under 10 active; P06280; activity change, negative = inhibition, % at 105 µM; purified enzyme, 4-MU-alpha-Gal fluorescence, pH 4.5; AID 1467; inconclusive = small, poorly fitted or top-dose-only inhibition, or a rising curve; inactive = flat fitted curve, though single readings scatter; no compound was filed as active;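 note: 0% = full activity with enzyme and -100% = basal without enzyme; dose as in the result columns while the protocol names 77 µM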
# Target sequence (P06280 whole entry, looked up): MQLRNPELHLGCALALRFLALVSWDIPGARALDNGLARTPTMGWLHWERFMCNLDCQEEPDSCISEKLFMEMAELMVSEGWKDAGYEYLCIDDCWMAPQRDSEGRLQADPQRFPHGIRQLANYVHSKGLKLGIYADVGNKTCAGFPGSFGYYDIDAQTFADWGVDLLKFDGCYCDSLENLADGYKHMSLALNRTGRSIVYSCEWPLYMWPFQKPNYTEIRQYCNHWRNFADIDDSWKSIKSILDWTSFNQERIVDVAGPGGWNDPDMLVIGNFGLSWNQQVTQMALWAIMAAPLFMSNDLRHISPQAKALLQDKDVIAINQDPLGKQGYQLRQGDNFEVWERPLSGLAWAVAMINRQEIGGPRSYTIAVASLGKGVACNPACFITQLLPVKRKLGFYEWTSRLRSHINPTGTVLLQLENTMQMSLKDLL
# miR-21 reporter – miR-21 reporter, rising signal | HeLa miR-21 FLuc reporter, luciferase, 48 h | Potency, µM (doses to about 38.3 µM), for inactives: at the top dose reporter change, positive = more light | 340,000 tested, under 10 active; active = well fitted rising curve with a large enough effect; inconclusive = small, poorly fitted or top-dose-only effect; inactive = no such curve, though single readings can be large or run the other way;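 note: % of control where 0% means no effect; miR-21 action dims this reporter so a rising signal means less miR-21 action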
#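 HeLa cells stably expressing CMV-driven firefly luciferase with a downstream miR-21 binding sequence, endogenously expressing miR-21, were treated with titrations (up to about 40uM final) for 48 hours at 37 degree Celsius. Luciferase luminescence was read after lysis.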
# Rango release inh – inhibition of RanGTP-driven Rango-importin beta dissociation; O95149+P62826; 340,000 compounds, 0.071% hits; Biochemical FRET Rango-importin beta, RanGTP-induced dissociation; Potency, µM (highest dose often 46.1 µM), for the others: at the highest dose activity change, negative = inhibition; active means falling FRET ratio curve, often poorly fitted, with flat reads before Ran was added; inconclusive means other falling curves, or compound fluorescence or quenching; inactive means flat or rising ratio curve;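 note: potency is the fitted concentration of half-maximal effect; % of control where 0% means no effect; nearly all actives have a fitted effect of over 45% in size; -100% = wells without RanGTP and RCC1; the record marks most hits as doubtful in a second field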
#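 Two FRET readings bracket the reaction: one 5 min after compound meets Rango–importin beta, another 45 min after RanGTP-RCC1 (0.6 uM Ran, 0.2 uM RCC1, 2 mM GTP) is added. Only the second defines inhibition.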
# Rango-impB inh – Rango-importin beta binding inhibition; Q14974; Rango CFP/YFP FRET sensor + importin beta, 45 min; Potency, µM (series often up to 92.2 µM), without a hit: top-dose inhibition of complex formation; 340,000 compounds, 0.031% hits; active = rising FRET ratio curve, often small or poorly fitted; inconclusive = mostly compound fluorescence or quenching in the first reads; inactive = flat curves in all reads;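 note: potency is the fitted concentration of half-maximal effect; 0% = DMSO wells and 100% = buffer wells lacking importin beta; nearly all actives have a fitted effect of over 15% in size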
#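 FRET biosensor Rango (snurportin 1 IBB between N-terminal EYFP and C-terminal Cerulean), 50 nM in PBS/1 mM DTT/0.02% Tween-20/0.1% BSA, preincubated 5 min RT with compound; 0.125 microM importin beta added, 45 min RT, CFP/YFP FRET ratio read.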
# * marks the source's active call; other numbers are inactive results; ? = inconclusive; nt = not tested or not shown; & = joins results of further samples. A portion of the library (hit frequency here may not be typical).
SMILES	GLA inh pH 4.5	miR-21 reporter	Rango release inh	Rango-impB inh
COc1cc2c(cc1OC)CN(C(=O)/C=C/c1cccs1)CC2	-12	18%	-7%	?
CC(=O)Nc1ccc(/C=N/NC(=O)c2cc(-c3ccco3)nc3ccccc23)cc1	0	-1%	2%	-1.7%
COc1ccc(S(=O)(=O)N(C)CC(=O)NC2CCCCC2)cc1Cl	-3	-4%	-4%	2.0%
CCN(CC)CCCNC(=S)N1CCn2c(nc3ccccc32)C1	1	-6%	15%	?
CC(Oc1ccc(C(C)(C)C)cc1)C(=O)NC1CC(C)(C)NC(C)(C)C1 (configuration not stated)	nt	-5%	-12%	3.2%
O=C(O)/C=C/c1ccc(S(=O)(=O)N(CCO)CCO)cc1	-3	-1%	-12%	0.8%
CCOC(=O)c1c(C)[nH]c(C(=O)CN2C(=O)C(=O)N(CC(C)C)C2=O)c1C	5	-14%	13%	-0.5%
COc1cc2c(cc1OC)C(C(=O)NCCN1CCOCC1)C1c3ccccc3CCN1C2=O (configuration not stated)	2	-6%	1%	-0.8%
O=c1cc(CN2CCCCCC2)nc2sccn12	1	1%	-9%	6.0%
O=C(CCCn1c(SCC(=O)Nc2ccccc2C(F)(F)F)nc2ccccc2c1=O)NCC1CCCO1 (configuration not stated)	nt	-1%	-18%	0.2%
Cc1ccc(-c2cc(-c3cccs3)[nH]n2)c(O)c1	11	-37%	-4%	-0.7%
CC(NC(=O)CSc1nnc2n1CCCCC2)c1ccccc1Cl (configuration not stated)	nt	nt	-4%	2.3%
O=C(NCc1ccccc1F)c1ccc2ccccc2n1	nt	-8%	13%	-0.9%
Cc1cc(NC(=O)CCC(=O)N(CCC(C)C)C(C(=O)NC2CCCC2)c2cccnc2)no1 (configuration not stated)	-4	-2%	-3%	0.3%
COc1ccc(NS(=O)(=O)c2cc(OC)ccc2NC(=O)c2cc(C)oc2C)cc1	-6	24%	-13%	-5.4%
COC(=O)CN(C(=S)Nc1ccc(Cl)cc1)C1CC(=O)N(c2ccc(OC)cc2)C1=O (configuration not stated)	1	-4%	2%	-2.5%
C/C(=N\NC(=O)c1ccncc1)c1cc2ccccc2o1	0	-7%	1%	0.2%
Cc1cccc(NC(=O)N2CCCC2C(=O)NCc2cccs2)c1 (configuration not stated)	4	-2%	-9%	-4.2%
Cn1c(CO)cnc1SCC(=O)c1ccc(F)cc1	nt	-38%	18%	-0.8%
COc1ccc(N(C(=O)CNC(=O)c2cccs2)C(C(=O)NC2CCCC2)c2ccncc2)cc1 (configuration not stated)	nt	5%	10%	-0.1%
CC1=NN(c2ccccc2)C(=O)C1N=Nc1ccc(S(N)(=O)=O)cc1 (configuration not stated)	-21	-9%	14%	0.8%
COc1ccccc1-c1c(C(F)(F)F)oc2cc(OCC(=O)Nc3ccccc3C(F)(F)F)ccc2c1=O	1	-4%	-12%	1.3%
Cc1ccc(C(=O)N2CCN(c3ncccn3)CC2)c(C)c1	nt	0%	-7%	3.4%
COc1ccc(CCNC(=O)CSc2ccc(-c3ccco3)nn2)cc1OC	-1	0%	0%	1.8%
COc1ccc(/C=N/N2C(=O)C3C4C=CC(C4)C3C2=O)cc1[N+](=O)[O-] (configuration not stated)	11	-10%	6%	0.4%

# Next part.
SMILES	GLA inh pH 4.5	miR-21 reporter	Rango release inh	Rango-impB inh
NS(=O)(=O)c1cccc(NC(=O)c2cccc(N3C(=O)c4ccccc4C3=O)c2)c1	nt	nt	-18%	-2.1%
O=C(Nc1ccc(Cc2ccncc2)cc1)C1CCC(N2C(=O)C3CCCCC3C2=O)CC1 (configuration not stated)	-1	19%	-12%	4.3%
COc1cc(NC(=O)C2CCCCN2)ccc1OCC(C)C (configuration not stated)	0	-9%	-1%	-2.5%
CCOC(=O)/C(C#N)=C1/SC(CCO)C(=O)N1c1ccccc1 (configuration not stated)	nt	-9%	18%	0.5%
CC(=O)NN1C(=O)/C(=C\c2ccc(C)cc2)SC1=S	-24	0%	3%	0.0%
CCN(C(=O)COC(=O)C1=COCCO1)c1c(N)n(Cc2ccccc2)c(=O)[nH]c1=O	nt	nt	-19%	?
COc1ccc2c(ccc[n+]2CC(=O)c2ccccc2)c1	nt	5%	-10%	3.4%
c1ccc(C2[C@H]3CN(Cc4cccnc4)[C@H](c4ccccc4)C34CC2(c2ccccc2)C4)cc1 (some centres not stated)	-2&-6	-1%	-2%	1.1%
CCCCC1=CC2=CC(=O)C(C)(OC(=O)c3cccs3)C(=O)C2=CO1 (configuration not stated)	-3	nt	?	?
Cc1ccc(Oc2ccccc2/C=C2\SC(=O)N(C)C2=O)cc1	-2	0%	-1%	-2.1%
Cc1ccc(-c2nnn(CC(=O)N3CCN(c4ccccc4)CC3)n2)o1	-2	-7%	0%	-5.9%
O=C(CSc1nnnn1-c1ccccc1)NC(=O)Nc1ccc2c(c1)OCCO2	-4	-34%	-3%	0.9%
CCc1nn2c(=O)cc(COc3ccc(/C=C4\C(=N)N5N=C(C)SC5=NC4=O)cc3)nc2s1	-3	0%	-12%	-5.4%
COc1ccc2[nH]c(O)c(NC(C)=O)c2c1	-4	-4%	13%	0.5%
COc1ccc(NC(=O)CSc2cccc3cccnc23)c(OC)c1	0	-18%	1%	3.0%
CCn1cc(Br)c(C(=O)Nc2cccc(Cl)c2)n1	3	-33%	-7%	-1.7%
CCOc1ccc(NC(=O)CC2C(=O)N(c3cccc(OC)c3)C(=O)N2C(C)C)cc1 (configuration not stated)	0	3%	1%	3.1%
CCN1CCN(c2ccccc2NC(=O)C(C)Oc2ccc(C(C)=O)cc2)CC1 (configuration not stated)	nt	nt	-1%	-1.8%
COCCOC(=O)c1c(C)oc2ccc(NS(=O)(=O)c3ccc(C(=O)O)cc3)cc12	5	0%	-1%	-0.1%
CCC1(CC)C(=O)NC(=O)NC1=NCCc1ccc(O)cc1	2	-2%	-12%	-2.7%
CCOC(=O)N1CCN(C(=O)Cn2c(=O)sc3ccccc32)CC1	-7	-1%	10%	-0.6%
O=C(COC(=O)Cc1ccc(S(=O)(=O)N2CCOCC2)s1)NCCc1ccccc1	-10	0%	-15%	-4.9%
Nc1ccc(S(=O)(=O)c2ccccc2)nc1	nt	-1%	19%	-0.4%
CSCCC(Nc1ccc(S(=O)(=O)N2CCOCC2)cc1[N+](=O)[O-])C(=O)OCC(=O)N(C(C)C)C(C)C (configuration not stated)	5	-1%	23%	?
CC(/C=C/c1ccc(N(C)C)cc1)=N\N=C1\NC(=O)CC(C(=O)Nc2ccccc2)S1 (configuration not stated)	-7	-32%	?	?

# Structures above with a Cl atom (four):
SMILES	GLA inh pH 4.5	miR-21 reporter	Rango release inh	Rango-impB inh
COc1ccc(S(=O)(=O)N(C)CC(=O)NC2CCCCC2)cc1Cl	-3	-4%	-4%	2.0%
CC(NC(=O)CSc1nnc2n1CCCCC2)c1ccccc1Cl (configuration not stated)	nt	nt	-4%	2.3%
COC(=O)CN(C(=S)Nc1ccc(Cl)cc1)C1CC(=O)N(c2ccc(OC)cc2)C1=O (configuration not stated)	1	-4%	2%	-2.5%
CCn1cc(Br)c(C(=O)Nc2cccc(Cl)c2)n1	3	-33%	-7%	-1.7%

# (listing goes on)
SMILES	GLA inh pH 4.5	miR-21 reporter	Rango release inh	Rango-impB inh
Cc1ccc(NC(=S)NCc2ccccc2Cl)c(C)c1	0	-7%	-19%	1.1%
O=C(Nc1ccc(O)cc1)c1ccc(C(=O)c2ccccc2)o1	6	-47%	10%	-0.7%
COc1ccc(-c2cc3c(=O)n(CC(=O)NCCCN4CCC(Cc5ccccc5)CC4)ncn3n2)cc1	nt	-30%	9%	3.1%
CC1(C)Cc2c(sc3c2c(=N)n(Cc2ccco2)c(=O)n3Cc2ccc(Cl)cc2)CO1	-10	-18%	1%	-0.2%
Cc1ccc(S(=O)(=O)CC(=O)N2CCCC2)cc1	-5	-28%	11%	0.7%
C=CCN1C2CCCC1CC(NC(=S)Nc1cccc(OC)c1)C2 (configuration not stated)	3	-7%	-16%	-3.9%
Cc1nc(N)nc(N(C)c2ccccc2)c1Br	nt	nt	-9%	0.0%
O=C(/C=C/c1ccccc1)NNC(=O)c1cccc(Cl)c1	-14	-19%	0%	-1.3%
CCN(CC)S(=O)(=O)c1cccc(-c2nnc(SCC(N)=O)n2CCc2ccccc2)c1	-4	-3%	0%	-4.6%
C=CCOc1ccc(/C=C/C(=O)OCC(=O)N(C)CC(=O)Nc2ccc(F)cc2)cc1	nt	nt	-14%	-4.0%
O=S(=O)(O)c1ccc(NN=Cc2ccccc2O)cc1	nt	nt	-11%	-2.1%
CCCCC(=O)Nc1cc(-c2nc3ncccc3o2)ccc1C	-7	-4%	20%	6.2%
N#CCCN(Cc1ccccc1)C(=O)Nc1ccccc1	-2	0%	12%	0.8%
Cc1cc(Cl)c(S(N)(=O)=O)cc1OCC(=O)NC1CCCCC1	nt	-4%	3%	3.5%
CCOc1ccc(NC(=NCc2ccc3c(c2)OCO3)SC2CC(=O)N(c3ccc(OCC)cc3)C2=O)cc1 (configuration not stated)	4	-22%	11%	3.3%
COc1ccccc1OC(C)C(=O)Nc1nc(-c2ccc(S(=O)(=O)N3CCOCC3)cc2)cs1 (configuration not stated)	-3	-7%	5%	-6.3%
CCOc1ccc(Br)cc1/C=N/O	8	-3%	16%	-1.3%
CCC(CC)c1nnc(NC(=O)CCc2ccccc2OC)s1	nt	-6%	15%	0.5%
S=c1[nH]nc(-c2ccc3ccccc3n2)n1Cc1ccccc1	-3	1%	16%	6.1%
Cc1cnc(C(=O)OCC(=O)NC(=O)NC(C)C)cn1	4	3%	1%	0.5%
CCCCn1c(CN2CCN(C(=O)OCC)CC2)nc2c1c(=O)n(C)c(=O)n2C	2	0%	8%	2.6%
Cc1ccc(S(=O)(=O)N2CCC(=O)N(C(COCc3ccc(Cl)cc3)Cc3ccccc3)CC2)cc1 (configuration not stated)	-1	-7%	-19%	6.0%
CC(=C/c1ccc(C(C)C)cc1)/C=N/NC(=O)c1ccncc1	-1	-22%	-6%	?
O=C(c1ccco1)N1CCCN(Cc2nc(-c3cccs3)no2)CC1	-3	-9%	-1%	-0.8%
O=C(CC1C(=O)NCCN1Cc1cccc(Oc2ccccc2)c1)NCCc1ccncc1 (configuration not stated)	-7	-1%	11%	-0.1%

# Going on with the list:
SMILES	GLA inh pH 4.5	miR-21 reporter	Rango release inh	Rango-impB inh
O=C(CSc1nnc2ccccn12)NNC(=O)c1cccc([N+](=O)[O-])c1	nt	nt	0%	1.8%
O=c1[nH]nc(-c2ccc(F)cc2)cc1Cc1ccccc1	-4	-15%	-19%	0.9%
COc1cccc(C2NC(CCSC)(C(=O)O)C3C(=O)N(C(C)C)C(=O)C23)c1O (configuration not stated)	-3	3%	-2%	3.3%
O=c1c2c(-c3ccccc3)csc2nc2n1CCC2	-5	-3%	-11%	4.2%
Cc1cc(CCN2CCC(=O)NC2=S)ccc1OC(C)C	8	-13%	0%	-2.8%
CCOC(=O)c1ccc(CNC(=O)Cn2nnc(-c3cccc(C)c3)n2)o1	-1	0%	nt	nt
COCCN1CCN(C(=O)c2ccc3oc(CCCc4ccccc4)nc3c2)CC1	nt	-44%	3%	-2.6%
COc1ccccc1C(=O)Nc1cc2cc(Br)ccc2oc1=O	4	-2%	-1%	0.4%
CSc1nnc(C2CCN(CC(=O)Nc3ccccc3N3CCOCC3)CC2)n1C(C)C	nt	-5%	0%	3.4%
Cc1ccc(-c2nnc(COC(=O)c3ccco3)o2)cc1	nt	-6%	0%	-1.2%
COc1ccc(Cl)cc1-c1nc(-c2ccc(Br)o2)no1	-2	-1%	17%	-5.7%
COc1c2c(cc3oc(CO[C@@H]4O[C@H](CO)[C@@H](O)[C@H](O)[C@H]4O)cc(=O)c13)O[C@H](C(C)(C)O)C2	nt	nt	5%	0.6%
C=CCOC(=O)C1=C[C@H](c2coc3ccccc3c2=O)C[C@H](OCCCCO)O1	nt	nt	?	2.1%

# Assay outcomes as filed in PubChem.
